Vaccinia Venus – vaccinia inhibition (Venus reporter) | Vaccinia virus Venus reporter expression, fluorescence | Potency, µM (top dose mostly 36.5 µM), inactives show top-dose activity change, negative = inhibition, usual class: inhibitors | hit rate 0.46% among 330,000; active means well fitted inhibition curve with a large enough effect; inconclusive means small, poorly fitted or top-dose-only effect; inactive means no such curve, though single readings can be large or run the other way; tested in A549 cells; note: nearly all actives have a fitted effect of over 30% in size; inactives centre near -10
VACV mCherry inh – inhibitors of vaccinia virus infection (mCherry reporter signal) | Vaccinia virus mCherry reporter infection, fluorescence; about a quarter of the inactives have no number | Potency, µM (doses to about 36.5 µM), for inactives: at the top dose activity change, negative = inhibition, hits mostly inhibitors | hit rate 0.63% among 310,000 | AID 720579; active = well fitted inhibition curve with a large enough effect; inconclusive = small, poorly fitted or top-dose-only effect; inactive = no such curve, though single readings can be large or run the other way; tested in A549 cells; note: nearly all actives have a fitted effect of over 35% in size; inactives centre near -10
The depositor's hits bear a star; [ ] = another dose, or the depositor's remark. % is set by controls: 0 for no effect and ±100 for the full control effect; potency is the fitted concentration of half-maximal effect.

CCn1c(NCc2cccs2)nc2ccccc21 was read as Vaccinia Venus inconclusive.
Screening Cc1c(C)n(Cc2ccccc2)c2ccc(C(=O)NCc3ccc(OC(C)C)cc3)cc12 returned Vaccinia Venus -8.9% and VACV mCherry inh inactive.
CCOc1cc(C(=O)NCCc2ccc(S(N)(=O)=O)cc2)cc(OCC)c1OCC was read as Vaccinia Venus -14.4%[7.34 µM] and VACV mCherry inh -11.5%[7.34 µM].
O=C1Nc2ccccc2OC1CC(=O)N1CCOCC1 (centres undefined) was read as Vaccinia Venus -5.6% and VACV mCherry inh 16.5%.
`O=C(NC(=S)NCc1ccc(-c2nc3ccccc3s2)cc1)c1ccco1` gave Vaccinia Venus inconclusive and VACV mCherry inh inconclusive.
For CCN(CC)CCn1c(SCC(=O)NCc2ccccc2)nc2c(sc3ccccc32)c1=O the results were Vaccinia Venus -9.1% and VACV mCherry inh -28.3%.
For COc1cc(CC2COC(c3ccc(O)c(OC)c3)C2COC(C)=O)ccc1O (centres undefined) the results were Vaccinia Venus -5.9% and VACV mCherry inh -5.5%.
Screening COC(=O)c1sc(N2C(=O)C(O)=C(C(=O)c3ccc(C)o3)C2c2ccco2)nc1C (centres undefined) returned Vaccinia Venus -5.3% and VACV mCherry inh -9.3%.
`CCOC(=O)c1c(C)n(-c2ccc(C)cc2)c2ccc(O)c(CN(C)C)c12` gave Vaccinia Venus -20.9% and VACV mCherry inh inconclusive.
For Cc1cc[n+](CCC2CCCCC2)cc1 the results were Vaccinia Venus inconclusive and VACV mCherry inh -16.6%.
`COc1cccc(C(=O)NC2CCCc3ccccc32)c1` (centres undefined) gave Vaccinia Venus -5.5% and VACV mCherry inh -7.9%.
CCCn1c(C(C)Nc2nc(-c3ccc(C)cc3)cs2)nc2cc(Cl)c(Cl)cc21 (centres undefined) was read as Vaccinia Venus -6.6% and VACV mCherry inh -5.2%.
`NC(=O)c1ccsc1NC(=O)COC(=O)c1cc(Cl)ccc1O` gave Vaccinia Venus 3.9% and VACV mCherry inh -5.3%.
Screening S=C(Nc1ccccc1)N1CCOCC1 returned Vaccinia Venus 1.0% and VACV mCherry inh inactive.
`COc1ccc(C(=O)Nc2cc(C)nn2-c2ccc(F)cc2)cc1` gave Vaccinia Venus -23.9% and VACV mCherry inh inactive.
COc1ccc(/C=C/c2cc(O)cc(OC3OC(CO)C(O)C(O)C3O)c2)cc1 (centres undefined) was read as Vaccinia Venus -10.0% and VACV mCherry inh inactive.
Screening CC1(C)Cc2c(sc3[nH]c(=S)n(Cc4ccccc4)c(=O)c23)CO1 returned Vaccinia Venus -14.4% and VACV mCherry inh -3.2%.
Screening COC(=O)c1c(NC(=O)c2ccccc2F)sc(C(=O)N2CCOCC2)c1C returned Vaccinia Venus 3.3% and VACV mCherry inh -10.6%.
`COCCNS(=O)(=O)c1ccc(SC)cc1` gave Vaccinia Venus 7.7% and VACV mCherry inh 1.7%.
Screening CCOc1ccc(N(CC(=O)NN=C2CCN(C)CC2)S(=O)(=O)c2ccc(Br)cc2)cc1 returned Vaccinia Venus -21.2% and VACV mCherry inh inactive.
`CNC(=S)n1cnc(N)n1` gave Vaccinia Venus -16.6% and VACV mCherry inh -26.9%.
`Cc1ccc(C)c(-c2[nH]c3c(c2-c2c(-n4cccc4)n(C)c(=O)[nH]c2=O)c(=O)[nH]c(=O)n3C)c1` gave Vaccinia Venus -1.4% and VACV mCherry inh -11.5%.
For CC(=O)N(c1ccccc1)c1nc(C)cc(C)c1C#N the results were Vaccinia Venus 1.0% and VACV mCherry inh -8.4%.
CCN(CC)CCCNc1cc(C)nc2cc(-c3cccs3)nn12 was read as Vaccinia Venus -12.1% and VACV mCherry inh -5.1%.
`COc1ccc(Nc2nc(N)nc(CSC(=S)N3CCC(C)CC3)n2)cc1` gave Vaccinia Venus -19.2% and VACV mCherry inh inactive.
For Cc1cc(F)ccc1NC(=O)C1CCCN(C(=O)c2cnn(-c3ccccc3)c2-n2cccc2)C1 (centres undefined) the results were Vaccinia Venus -16.4% and VACV mCherry inh -10.6%.
For CNc1ccc(-c2cccc(C(C)=O)c2)cn1 the results were Vaccinia Venus -4.2% and VACV mCherry inh inconclusive.
For CC(C)(C)OC(=O)N1CCC(c2c(C(=O)N3CCCCC3)cnn2-c2ccccc2Cl)CC1 the results were Vaccinia Venus -5.4% and VACV mCherry inh -0.8%.
Screening CC1=C(C(N)=O)C(c2ccc(C)cc2)n2nc(SCc3ccccc3F)nc2N1 (centres undefined) returned Vaccinia Venus -8.4% and VACV mCherry inh -14.0%.
`CCOC(=O)C1=CN(C)CCC1=O` gave Vaccinia Venus 0.0% and VACV mCherry inh inactive.
For COCCn1c(C)cc(O)c(C(c2cccc(F)c2)N2CCN(c3ccccc3)CC2)c1=O (centres undefined) the results were Vaccinia Venus -10.1% and VACV mCherry inh -12.9%.
For Cc1ccc(C(=O)OCC(=O)N2C(C)CCCC2C)cc1S(=O)(=O)N1CCCCC1 (centres undefined) the results were Vaccinia Venus -1.7% and VACV mCherry inh -0.3%.
CC12CCC3c4ccccc4CCC3(CO1)C2 (centres undefined) was read as Vaccinia Venus -17.7% and VACV mCherry inh -0.5%.
For O=C(Nc1cccc(O)c1)c1ccc(C(F)(F)F)cc1 the results were Vaccinia Venus -1.1% and VACV mCherry inh -36.4%.
For O=C1CCC(C(=O)Nc2ccc([N+](=O)[O-])cc2)N1 (centres undefined) the results were Vaccinia Venus -3.6% and VACV mCherry inh -18.8%.
Screening CC(=O)OCC(=O)[C@H]1CC[C@H]2[C@@H]3CC=C4C[C@@H](O)CC[C@]4(C)[C@H]3CC[C@]12C returned Vaccinia Venus -9.7% and VACV mCherry inh -10.9%.
Screening Cc1cc(NC(=O)c2ccc(F)cc2)n(-c2ccccc2)n1 returned Vaccinia Venus -11.9% and VACV mCherry inh inactive.
Screening O=C(NCCN1CCOCC1)c1cnn(-c2nccc(-c3ccccc3F)n2)c1C1CC1 returned Vaccinia Venus inconclusive and VACV mCherry inh -1.4%.
`Cc1nc2ccccc2cc1O` gave Vaccinia Venus -8.7% and VACV mCherry inh -13.1%.
For O=C(O)C1=CCC(c2ccc(Cl)c(Cl)c2)N(S(=O)(=O)c2ccc(F)cc2)C1c1cccc(F)c1 (centres undefined) the results were Vaccinia Venus 2.5% and VACV mCherry inh inactive.
`COc1cc(/C=C/C(=O)O)ccc1OCc1ccc([N+](=O)[O-])cc1` gave Vaccinia Venus -2.9% and VACV mCherry inh -7.6%.
Screening COc1ccc(N2CCN(C(=O)COc3ccc4ccccc4c3)CC2)cc1 returned Vaccinia Venus -6.6%.
For CCOc1ccc(OCC(=O)NCCS(=O)(=O)N2CCN(c3cccc(Cl)c3)CC2)cc1 the results were Vaccinia Venus -9.2% and VACV mCherry inh -3.4%.
For CC1CCN(C(=O)c2ccc(S(=O)(=O)NCc3ccco3)cc2)CC1 the results were Vaccinia Venus -3.9% and VACV mCherry inh 10.5%.
Screening O=C(Cn1ccc(NC(=O)OCc2ccccc2)nc1=O)NCc1ccc2c(c1)OCO2 returned Vaccinia Venus -9.1% and VACV mCherry inh inactive.
`CC1CCN(CCCn2c(=S)[nH]c3ccccc3c2=O)CC1` gave Vaccinia Venus -8.5%.
`CCOC(=O)C1CCN(C(=O)COc2ccc(Cl)cc2C)CC1` gave Vaccinia Venus 0.6%.
Cc1ccnc2nc(C(=O)NC3CCCc4ccccc43)nn12 (centres undefined) was read as Vaccinia Venus -7.6% and VACV mCherry inh inactive.
`CCN(CC(=O)Nc1ccc(NC(C)=O)cc1)C(=O)c1ccccc1SCc1c(C)noc1C` gave Vaccinia Venus -20.7% and VACV mCherry inh -8.4%.
For Cc1cc(NC(=O)CSc2ncccn2)no1 the results were Vaccinia Venus -12.8% and VACV mCherry inh inactive.
Screening CC1=C(C(=O)Nc2ccc(C)cc2C)C(c2ccc(O)cc2)n2nc(SCC(=O)c3ccc(C)cc3)nc2N1 (centres undefined) returned Vaccinia Venus -6.4% and VACV mCherry inh -9.9%.
For CC(C)=CCN1CCN(Cc2cnc(N3CCOCC3)s2)CC1CCO (centres undefined) the results were Vaccinia Venus -4.5% and VACV mCherry inh -8.8%.
Screening O=S(=O)(c1ccccc1)c1ncc(C(F)(F)F)cc1O returned Vaccinia Venus -4.6% and VACV mCherry inh inactive.
Screening O=C(NCCC(=O)N1CCN(C(=O)c2ccco2)CC1)c1ccccc1Cl returned Vaccinia Venus -7.3% and VACV mCherry inh inactive.
`COc1ccc(CCN2CC(C(=O)NCCc3cccnc3)CCC2=O)cc1` (centres undefined) gave Vaccinia Venus -5.4% and VACV mCherry inh -9.4%.
Screening CCSc1nc2c(c(-c3ccc(C)o3)c1C#N)CCCC2 returned Vaccinia Venus -9.9% and VACV mCherry inh inactive.
Screening CC(Oc1ccccc1)C(=O)Nc1ccc(F)c(S(=O)(=O)N2CCOCC2)c1 (centres undefined) returned Vaccinia Venus -13.9% and VACV mCherry inh -29.6%.
Cc1ccccc1NS(=O)(=O)c1ccc2c(c1)NC(=O)CO2 was read as Vaccinia Venus -5.4% and VACV mCherry inh inactive.
For O=C(COc1ccccc1)N1CCN(CC2CC=CCC2)CC1 (centres undefined) the results were Vaccinia Venus -6.7% and VACV mCherry inh -3.0%.
For CN1CCC(N(C)C(=O)CCc2nc3ccccc3n2-c2ccccc2)CC1 the results were Vaccinia Venus -4.1% and VACV mCherry inh -13.8%.
Screening Cn1c(N2CCN(C(c3ccccc3)c3ccccc3)CC2)nc2c1c(=O)[nH]c(=O)n2C returned Vaccinia Venus -4.0% and VACV mCherry inh -10.9%.
Screening Clc1ccc(OCc2cc(-c3ccccc3)no2)cc1Cl returned Vaccinia Venus -14.9% and VACV mCherry inh -15.1%.
`Cn1c(=O)oc2cc(S(=O)(=O)Nc3ccccc3O)ccc21` gave Vaccinia Venus 0.8% and VACV mCherry inh -13.9%.
For CCn1c(=O)c(C(=O)NCCNCCO)c(O)c2ccccc21 the results were Vaccinia Venus 5.7%.
For Cc1ccc(N2C(=O)CN=C2Nc2nc(C)cc(C)n2)cc1 the results were Vaccinia Venus -4.5% and VACV mCherry inh -29.7%.
COc1ccc(-c2nc3ccccc3c(=O)n2NC(=O)c2cccnc2Cl)cc1OC was read as Vaccinia Venus 4.3% and VACV mCherry inh inactive.
Screening CN1CCCC1(C)C(=O)NCc1ccc(F)cc1Cl (centres undefined) returned Vaccinia Venus 2.3% and VACV mCherry inh 12.8%.
`C/C(=N\NC(=O)Cc1ccccc1Cl)c1cccnc1` gave Vaccinia Venus -18.4% and VACV mCherry inh inactive.
For CC(C)OC(=O)N(C)C[C@@H]1OCc2cnnn2CCCC(=O)N([C@@H](C)CO)C[C@H]1C the results were Vaccinia Venus -11.3% and VACV mCherry inh inactive.
Screening CN(Cc1nccn1C)C(=O)CCc1nnc(CCC2CCCCC2)o1 returned Vaccinia Venus 2.4% and VACV mCherry inh inconclusive.
`NC(=O)CCCC1=NS(=O)(=O)c2ccccc2N1` gave Vaccinia Venus inconclusive and VACV mCherry inh -13.7%.
Cc1cccc(N2C(=O)C3CC3C2=O)c1 (centres undefined) was read as Vaccinia Venus 9.0% and VACV mCherry inh inactive.
`COc1ccc(N2CCN(C(CNC(=O)c3ccc4c(c3)OCO4)c3cccnc3)CC2)cc1` (centres undefined) gave Vaccinia Venus 7.8%.
`N/C(CS(=O)(=O)c1ccccn1)=N\OC(=O)c1ccc(Cl)cc1` gave Vaccinia Venus -8.0% and VACV mCherry inh -8.1%.
`Cn1c(=O)c2c(ncn2CC(=O)OCC(=O)Nc2cccc(Cl)c2)n(C)c1=O` gave Vaccinia Venus 1.9% and VACV mCherry inh -1.8%.

4 compounds out of the list, ordered by molecular weight, rising.
For CC1CCN(C(=O)c2ccc(S(=O)(=O)NCc3ccco3)cc2)CC1 the results were Vaccinia Venus -3.9% and VACV mCherry inh 10.5%.
Screening CC(=O)OCC(=O)[C@H]1CC[C@H]2[C@@H]3CC=C4C[C@@H](O)CC[C@]4(C)[C@H]3CC[C@]12C returned Vaccinia Venus -9.7% and VACV mCherry inh -10.9%.
`O=C(NC(=S)NCc1ccc(-c2nc3ccccc3s2)cc1)c1ccco1` gave Vaccinia Venus inconclusive and VACV mCherry inh inconclusive.
Screening O=C(Cn1ccc(NC(=O)OCc2ccccc2)nc1=O)NCc1ccc2c(c1)OCO2 returned Vaccinia Venus -9.1% and VACV mCherry inh inactive.

In the list so far, these have a cyano group:
For CC(=O)N(c1ccccc1)c1nc(C)cc(C)c1C#N the results were Vaccinia Venus 1.0% and VACV mCherry inh -8.4%.
Screening CCSc1nc2c(c(-c3ccc(C)o3)c1C#N)CCCC2 returned Vaccinia Venus -9.9% and VACV mCherry inh inactive.

(list continues)
CCOc1ccc(Nc2sc(C(=O)c3ccc4c(c3)OCO4)c(N)c2S(=O)(=O)c2ccc(C)cc2)cc1 was read as Vaccinia Venus 6.0% and VACV mCherry inh -10.9%.
`O=C(O)C1(c2ccccc2)CCN(S(=O)(=O)c2ccc(F)c(F)c2)CC1` gave Vaccinia Venus -1.6% and VACV mCherry inh -19.8%.
Screening COc1ncccc1-c1nnn(-c2ccc(Cl)c(Cl)c2)n1 returned Vaccinia Venus -10.0% and VACV mCherry inh -8.6%.
`CC1CCCCN1S(=O)(=O)c1ccc(C(=O)N(CCCN(C)C)c2nc3cc4c(cc3s2)OCO4)cc1` (centres undefined) gave Vaccinia Venus -20.4% and VACV mCherry inh -15.8%.
Screening COc1ccc(NC(=O)c2cccc(S(=O)(=O)Nc3ccc(Br)cc3)c2)cn1 returned Vaccinia Venus inconclusive and VACV mCherry inh inconclusive.
For CN(C)C(=O)CNC(=O)CN1C(=O)NC2(CCCc3sccc32)C1=O (centres undefined) the results were Vaccinia Venus -7.9% and VACV mCherry inh -23.0%.
For O=C1CC(SCCO)C(=O)N1c1ccc(Oc2ccccc2)cc1 (centres undefined) the results were Vaccinia Venus -8.8% and VACV mCherry inh inactive.
